# Screening data (PubChem)
# Mtb MbtI inh = blocks the Mycobacterium tuberculosis siderophore enzyme MbtI; P9WFX0; inhibition, %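 (about 17 µg/mL by stock and volumes)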; purified MbtI enzyme, fluorescence intensity read-out; AID 493033; 100,000 compounds, 0.89% hits;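 active means above 50% in both replicates, above 80% if mildly self-fluorescent; inactive means the rest, strongly fluorescent compounds included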;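 further: 0% = mean of negative and 100% = mean of positive controls; one replicate is shown; some compounds called inactive have numbers as strong as hits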
# Target sequence (P9WFX0 whole entry, looked up): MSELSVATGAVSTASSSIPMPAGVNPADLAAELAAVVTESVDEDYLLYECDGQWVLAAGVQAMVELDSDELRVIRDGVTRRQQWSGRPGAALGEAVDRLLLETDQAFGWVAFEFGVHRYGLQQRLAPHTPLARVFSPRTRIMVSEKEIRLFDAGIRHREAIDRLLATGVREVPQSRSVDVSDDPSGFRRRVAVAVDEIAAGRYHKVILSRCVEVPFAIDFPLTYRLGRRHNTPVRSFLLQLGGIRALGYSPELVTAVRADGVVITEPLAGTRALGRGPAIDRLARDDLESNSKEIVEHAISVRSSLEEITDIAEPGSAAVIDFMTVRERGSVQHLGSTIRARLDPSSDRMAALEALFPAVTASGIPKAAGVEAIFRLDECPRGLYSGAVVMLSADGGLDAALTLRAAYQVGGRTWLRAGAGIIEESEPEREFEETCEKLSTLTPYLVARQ
# Polio RdRp inh = inhibitors of poliovirus RNA polymerase binding and polymerization | % elongation, % (compound at 16.7 µg/mL) | 150,000 compounds, 0.66% hits | poliovirus polymerase elongation, fluorescence polarization; active compounds read low | P03300 | AID 588519; in the data active means % elongation below about 90%; further: some results filed as inactive read as strong as hits
# MenB inh = blocks the Mycobacterium tuberculosis MenB enzyme. P9WNP5. MenB enzyme assay, absorbance read-out; some hits fall short of the stated cut. inhibition, %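 (about 12 µg/mL by stock and volumes)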. 100,000 compounds, 0.43% hits;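 active means mean of two replicates above 30%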;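 further: 0% = no compound and 100% = wells with inactive enzyme; the first replicate is given; strong numbers were not always called active; inactives centre near -10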
# Target sequence (P9WNP5 whole entry, looked up): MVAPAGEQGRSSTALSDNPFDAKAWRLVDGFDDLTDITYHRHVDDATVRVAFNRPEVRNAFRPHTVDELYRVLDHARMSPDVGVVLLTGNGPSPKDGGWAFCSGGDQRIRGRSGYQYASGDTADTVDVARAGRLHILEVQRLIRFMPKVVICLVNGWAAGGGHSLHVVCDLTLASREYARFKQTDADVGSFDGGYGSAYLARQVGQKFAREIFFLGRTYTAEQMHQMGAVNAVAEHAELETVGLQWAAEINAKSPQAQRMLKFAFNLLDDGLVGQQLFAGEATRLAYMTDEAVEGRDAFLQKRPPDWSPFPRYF
# Polio RdRp inh intensity = also measured in Polio RdRp inh; calls as there; % elongation; measured here: total intensity read-out; formula for this scale not given here;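 total fluorescence in place of polarization; lower means less elongation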
# * hit, by the source's call; / = no result given; & = joins results of further samples.
SMILES,Mtb MbtI inh,Polio RdRp inh,Polio RdRp inh intensity,MenB inh
CC1=CC(=C(C#N)C#N)C=C(C)N1c1ccc(C)c(C)c1,2.6,103.0,98.0,18.6
O=C1NC(c2cccc(O)c2O)Nc2sc3c(c21)CCC3 (stereo not drawn),0.4,113.0,103.0,-51.5
CCC(Sc1nc2ncccc2o1)C(=O)NCCc1ccccc1 (stereo not drawn),0.5,100.0,103.0,11.5
COc1cccn(Cc2n[nH]c(=S)n2C)c1=O,2.9,103.0,96.0,5.9
Cc1ccc(C(=O)N(C(C)C)C(C)C)c(Cl)c1,-0.6,99.0,101.0,-8.4
COc1ccc(Cl)cc1S(=O)(=O)N1CCC(C(=O)NCc2ccco2)CC1,-22.6,100.0,106.0,-22.2
COc1ccc(/C=C2/SC(=O)N(CCc3nnc(N)s3)C2=O)cc1,-2.2,102.0,103.0,-12.2
CC(C)=C(C#N)n1cnc2ccccc21,0.3,105.0,104.0,/
CCC(=O)Nc1ccc(-c2nc3c(C)cccc3c(=O)o2)cc1,82.7,104.0,102.0,-45.1
COC(=O)c1ccc(CSc2nnc(-c3ccc(OC)cc3)o2)cc1,-10.8,99.0,104.0,-27.5
CCN1C(=O)C2CSCN2C1=O (stereo not drawn),-10.3,100.0,107.0,-28.6
CCN1C(=O)C(O)(CC(=O)C(C)(C)C)c2cc(Br)ccc21 (stereo not drawn),-1.1,102.0,102.0,6.1
Clc1ccc(CCNc2ncnc3[nH]ncc23)cc1,0.5,98.0,104.0,0.9
CC(Oc1cccc2c1OC(C)(C)C2)C(=O)N1CCc2ccccc21 (stereo not drawn),-15.8,103.0,107.0,12.6
CCN(CC)S(=O)(=O)c1ccc(N2CCN(c3ccc(C(F)(F)F)cn3)CC2)nc1,16.1,101.0,102.0,-13.3
NC(=O)Cn1c(CSc2nnnn2C2CCCC2)nc2ccccc2c1=O,-1.6,104.0,115.0,-7.6
CCCc1cc(=O)[nH]c(SCC(=O)c2cc(C)n(-c3ccc4c(c3)OCO4)c2C)n1,7.8,102.0,99.0,-7.2
N#Cc1ccc(C(=O)OCC(=O)Nc2ccc(N3CCCCC3)cc2)cc1,-5.2,103.0,108.0,0.8
Cc1c(C(=O)O)sc2ncn(Cc3ccccc3F)c(=O)c12,8.8,101.0,92.0,-16.0
CSc1ncc(C(=O)N2CCN(c3ncccn3)CC2)n1-c1ccccc1,7.1,100.0,99.0,6.5
Cc1ccc(C)c(NC(=O)c2cccs2)c1,-0.3,104.0,102.0,2.2
Cc1nc2c(c(C)nn2-c2ccccc2)c(C)c1CCC(=O)N1CCCC1,-3.0,103.0,103.0,-5.0
C=CCn1c(SCc2nc3ccccc3c(=O)[nH]2)nnc1-c1cccc(OC)c1,-4.4,100.0,106.0,0.8
CCOC(=O)c1c(CS(=O)(=O)c2cccc(C(F)(F)F)c2)oc2c(F)c(F)c(F)c(F)c12,-8.6,101.0,104.0,-11.4
NC(=O)C1CCN(CC(O)CSc2ccc(F)cc2)CC1 (stereo not drawn),-3.5,110.0,114.0,-3.8
# Next compounds
SMILES,Mtb MbtI inh,Polio RdRp inh,Polio RdRp inh intensity,MenB inh
O=C(Nc1nccs1)c1ccc(S(=O)(=O)N2CCCc3ccccc32)cc1,20.1,102.0,99.0,4.8
CN1Cc2c(N)cccc2C(c2ccccc2)C1 (stereo not drawn),-1.7&-14.2,96.0&102.0,108.0&101.0,-1.7&-5.7
CCN(CC)C1=CC(=O)OC12CCCCC2,-8.6,107.0,100.0,-21.2
COc1cc(OC)cc(C(=O)Nc2cc(NC(=O)c3ccco3)ccc2OC)c1,9.0,99.0,102.0,47.9*
CSc1ccc(C(=O)NC(=O)NCc2cccc(Cl)c2)s1,2.7,100.0,110.0,-13.8
COC(=O)CC1C(=O)NCCN1C(=O)CSc1nc2ccccc2s1 (stereo not drawn),97.2*,95.0,93.0,-56.3
COC(=O)c1cc(-c2ccccc2)n[nH]1,/,104.0,103.0,-19.8
CC(=O)NCc1ccc(-c2csc(NC(=O)c3cnn(-c4ccccc4)n3)n2)cc1,64.8,104.0,98.0,-48.6
S=c1nc(N=Cc2ccco2)cc(/N=C/c2ccco2)[nH]1,/,89.0,109.0,-23.5
CC1CCC(C(C)C)C(OC(=O)Cn2nnc(-c3ccccc3)n2)C1 (stereo not drawn),5.1,108.0,106.0,3.9
O=C(NCCCO)NC1CCCCC1,-9.7,100.0,103.0,-0.6
COc1ccc(C(C(O)C(=O)c2c[nH]c3ccccc23)N2CCN(c3ccccc3)CC2)cc1 (stereo not drawn),-8.9,104.0,108.0,-6.7
COC(=O)c1sc(Sc2cccs2)c2c1CC(C)(C)CC2=O,8.2,104.0,97.0,-18.6
CCc1ccc(S(=O)(=O)NCC(O)COc2ccc(OC)cc2)cc1 (stereo not drawn),-9.0,109.0,115.0,-5.6
CCN(CC)S(=O)(=O)c1cc(C(=O)N(C)c2ccccc2)ccc1Cl,-4.8,101.0,99.0,/
Cc1cc(-c2ccc(C)c(S(=O)(=O)NCCN3CCN(c4cc(Cl)ccc4C)CC3)c2)on1,-0.9,103.0,103.0,-29.7
O=c1ccc(C(F)(F)F)cn1CN1CCN(S(=O)(=O)c2ccc3c(c2)CCCC3)CC1,-11.2,102.0,108.0,-2.7
O=C(O)c1cccc(NC(=O)C2CCCCC2C(=O)O)c1 (stereo not drawn),-6.7,103.0,106.0,-27.1
CC(=O)Nc1ccc(N=NN2CCCCC2)cc1,23.4,104.0,104.0,-29.0
COc1cc(CN2CCN(C(=O)c3ccccc3F)CC2)cc(OC)c1OC,6.7,103.0,101.0,-27.4
N/C(Cn1ccc(C(F)(F)F)n1)=N\OC(=O)Nc1ccc(Cl)cc1,1.4,101.0,103.0,-4.5
O=C(CN1CCC(n2nnc3cc(C(F)(F)F)ccc32)CC1)Nc1ccc(N2CCCC2)cc1,-4.0,104.0,105.0,-37.3
CN(C(=O)COC(=O)c1cc(=O)[nH]c2ccccc12)c1c(N)n(Cc2ccccc2)c(=O)[nH]c1=O,-12.3,100.0,101.0,-12.3
COc1ccc(CN2C(=O)CCC2(C)C(=O)NCCC(C)C)cc1 (stereo not drawn),-4.3,104.0,104.0,-24.5
COc1ccccc1CNC(=O)c1cn(C)c(=O)c2cc(OC)c(OC)cc12,-11.6,102.0,103.0,-6.4

# Profiles, looked up by structure:
# COc1ccc(CN2C(=O)CCC2(C)C(=O)NCCC(C)C)cc1 (stereo not drawn) is listed with Mtb MbtI inh = -4.3; Polio RdRp inh = 104.0; Polio RdRp inh intensity = 104.0; MenB inh = -24.5
# COC(=O)c1cc(-c2ccccc2)n[nH]1 is listed with Mtb MbtI inh = /; Polio RdRp inh = 104.0; Polio RdRp inh intensity = 103.0; MenB inh = -19.8

# A different layout for 2 compounds above.
# Order of values: Mtb MbtI inh, Polio RdRp inh, Polio RdRp inh intensity, MenB inh
COc1ccc(C(C(O)C(=O)c2c[nH]c3ccccc23)N2CCN(c3ccccc3)CC2)cc1 (stereo not drawn)
    -8.9, 104.0, 108.0, -6.7
CC(=O)NCc1ccc(-c2csc(NC(=O)c3cnn(-c4ccccc4)n3)n2)cc1
    64.8, 104.0, 98.0, -48.6

# Additional compounds:
SMILES,Mtb MbtI inh,Polio RdRp inh,Polio RdRp inh intensity,MenB inh
CN1CCN(C(=O)/C(C#N)=c2\s/c(=C\c3ccc4c(c3)OCO4)c(=O)n2Cc2ccco2)CC1,-3.6,104.0,106.0,-94.9
CCc1cc2c(=O)c(-c3ccn(C(C)=O)n3)coc2cc1OC(C)=O,/,97.0,89.0,-13.4
N#CSCC(=O)N1c2ccccc2CCc2ccccc21,20.8,100.0,102.0,32.6*
CC(C)Nc1c(-c2ccccc2)nc2ccccn12,31.2,106.0,100.0,-44.7
Cc1ccc(CNC2=NCCC2)n1C,16.9,105.0,112.0,-1.2
CCN1CCN(C(=O)C(C)Nc2cc(Cl)c(OC)cc2OC)CC1 (stereo not drawn),-2.5,103.0,106.0,-14.4
CC(C)Sc1n[nH]c(=O)n1-c1ccc2c(c1)OCCO2,/,101.0,100.0,-13.6
O=C(CCCc1ccccc1)Nc1nnc(C(F)(F)F)s1,-1.2,102.0,102.0,-16.2
CCOC(=O)c1cc(-c2ccc(S(=O)(=O)N3CCCc4ccccc43)s2)on1,-5.7,104.0,105.0,-12.4
CC1CCC(NC(=O)CN2CCC(n3nnc4ccccc43)CC2)CC1 (stereo not drawn),-3.0,103.0,103.0,-26.7
O=C(Nc1ccccc1)C1CC(=O)n2ncnc2N1 (stereo not drawn),-0.6,105.0,109.0,-15.5
CC(=O)Nc1cccc(C(=O)N(C)CCOc2ccccc2)c1,-14.9,108.0,112.0,3.6
O=C1C=CC(=O)N1c1cc(C(F)(F)F)ccc1Cl,98.2*,101.0,96.0,/
C=CCN(CC=C)Cn1c(=S)oc2ccc(S(=O)(=O)Nc3ccc(OC)cc3)cc21,85.2*,93.0,85.0,-23.0
CCOc1ccc(C(=O)OCC(=O)Nc2ccc(S(N)(=O)=O)cc2)cc1,-9.6,103.0,99.0,-8.9
Cc1cc(Nc2cccc(Cl)c2)nc2ccc(NC(=O)c3ccccn3)cc12,-2.9,99.0,98.0,-40.2
CC(=O)NC1C(OCc2ccccc2)OC(CO)C(O)C1OC(C)=O (stereo not drawn),-6.4,/,/,-5.5
CC(=O)Nc1ccc(C(=O)CSc2nccn2C)cc1,-2.7,101.0,105.0,/
COc1ccc(CNc2ccccc2C(=O)O)c(OC)c1OC,-446.5,100.0,102.0,7.1
Cc1ccn2c(NC3CCCCC3)c(C)nc2c1,6.5,100.0,101.0,15.3
O=C(CC1C(=O)NCCN1C(=O)Nc1ccccc1)Nc1cc(Cl)ccc1Cl (stereo not drawn),-13.3,103.0,102.0,16.4
O=C(O)CCC(=O)N1N=C2/C(=C/c3ccco3)CCCC2C1c1ccco1 (stereo not drawn),5.4,100.0,105.0,-9.8
CCCCCSc1nnc(-c2ccc(Cl)cc2Cl)o1,70.1,101.0,101.0,-10.3
Cc1cccc(NC(=O)CSCC(=O)Nc2ccc(S(N)(=O)=O)cc2)c1,-2.4,102.0,108.0,-6.8
O=C1c2ccccc2-c2onc3c(N4CCN(c5ccccc5)CC4)ccc1c23,-2.5,107.0,108.0,-15.1
# Other results follow:
SMILES,Mtb MbtI inh,Polio RdRp inh,Polio RdRp inh intensity,MenB inh
COc1ccc(Cc2nnc3n2N=C(C(C)(C)C)CS3)cc1,11.2,99.0,104.0,-8.6
CCC(Oc1ccc(F)cc1)C(=O)Nc1nonc1-c1ccccc1 (stereo not drawn),-5.1,101.0,103.0,-0.8
Nc1ccc2nc(Cc3ccccc3)[nH]c2c1,/,98.0,93.0,-6.6
CC(C)NC(=O)Cn1ncc2c3ccccc3n(Cc3ccc(F)cc3)c2c1=O,-1.9,106.0,102.0,-32.0
CCN1C(=O)CC(C(=O)NC)SC1=Nc1cc(Cl)c(O)c(Cl)c1 (stereo not drawn),4.2,103.0,103.0,-9.6
O=C(COC(=O)/C=C/c1ccccc1)NC1CCCc2ccccc21 (stereo not drawn),-0.9,102.0,98.0,/
C=C1C2(C(=O)Nc3nccs3)CCC(C2)C1(C)C (stereo not drawn),-8.2,104.0,101.0,-27.8
COc1ccc(C2OC(COc3ccccc3)CN(C(=O)c3ccccc3)O2)cc1OC (stereo not drawn),/,114.0,117.0,-25.6
CC(C)NC(=O)NNc1cc(N(C)C)c(C#N)c(N(C)C)n1,-6.0,98.0,109.0,-23.2
Cc1c(C#N)c2ccccc2n1CC(=O)O,/,101.0,101.0,-1.7
COCc1cc(C)nc2sc(C(=O)N3CCC(C)CC3)c(N)c12,4.2,102.0,103.0,-4.1
N#Cc1ccc(COC(=O)c2cnc3ncccn3c2=O)cc1,106.1,103.0,105.0,-2.1
CC(c1ccccc1)n1cc(C(=O)NCCN2CCCCCC2)nn1 (stereo not drawn),7.7,102.0,102.0,-50.9
COc1ccccc1NC(=S)N=Nc1c(O)n(CN2CCN(c3ccccc3)CC2)c2ccccc12,-6.6,101.0,102.0,-39.4
N#Cc1ccc(C(=O)OCc2ccc(-c3cccc(Cl)c3Cl)o2)c(F)c1,-5.7,102.0,103.0,-10.5
O=C(CSc1nccn(-c2cccc(F)c2)c1=O)NC1CCCCC1,30.8,102.0,101.0,13.3
O=c1[nH]c(=S)[nH]c2ccccc12,25.8&-5.5,98.0&99.0,104.0&105.0,8.1&28.8
CCCn1cnc2cc(NCc3ccc(Cl)cc3Cl)ccc21,1.9,101.0,108.0,-32.6
COc1ccc(CCNC(=O)CCCn2nc(C)n3ccnc3c2=O)cc1OC,-7.7,102.0,101.0,3.6
COc1ccc(S(=O)(=O)N2CCN(C(=O)c3cc(C)oc3C)CC2)cc1,-8.7,102.0,109.0,-11.6
COCCN(C(=S)Nc1ccccc1C)C1CCN(C(C)C)CC1,-17.9,102.0,103.0,-24.1
CC(=O)NC1C(=O)Nc2c1cccc2C(F)(F)F (stereo not drawn),-20.5,107.0,105.0,-15.5
CCOC(=O)C(Sc1n[nH]c(N)n1)c1ccccc1 (stereo not drawn),-6.8,/,/,-34.1
O=C1CS/C(=N/S(=O)(=O)c2ccccc2)N1C1CCCCC1,-4.0,104.0,107.0,-13.0
O=C(CNCCN1CCOCC1)Nc1ccc2c(c1)OCCO2,8.4,90.0,93.0,-10.6

# Some of the entries above in a different format.
Compound	Mtb MbtI inh	Polio RdRp inh	Polio RdRp inh intensity	MenB inh
CC(=O)NC1C(=O)Nc2c1cccc2C(F)(F)F (stereo not drawn)	-20.5	107.0	105.0	-15.5
O=C(COC(=O)/C=C/c1ccccc1)NC1CCCc2ccccc21 (stereo not drawn)	-0.9	102.0	98.0	/
COCCN(C(=S)Nc1ccccc1C)C1CCN(C(C)C)CC1	-17.9	102.0	103.0	-24.1

# Compounds as they come; 1.8% or so of the library scored in one or more.
